Source: PubChem
STK33 kinase inh: inhibitors of human STK33 kinase; Q9BYT3; purified STK33, MBP phosphorylation, ADP-Glo luminescence; inhibition, % at 10 µM; 320,000 tested, 0.073% active;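 active means inhibition at or above 25%, using the most active replicate where run in duplicate; inactive means inhibition below 25%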
Target sequence (Q9BYT3 whole entry, looked up): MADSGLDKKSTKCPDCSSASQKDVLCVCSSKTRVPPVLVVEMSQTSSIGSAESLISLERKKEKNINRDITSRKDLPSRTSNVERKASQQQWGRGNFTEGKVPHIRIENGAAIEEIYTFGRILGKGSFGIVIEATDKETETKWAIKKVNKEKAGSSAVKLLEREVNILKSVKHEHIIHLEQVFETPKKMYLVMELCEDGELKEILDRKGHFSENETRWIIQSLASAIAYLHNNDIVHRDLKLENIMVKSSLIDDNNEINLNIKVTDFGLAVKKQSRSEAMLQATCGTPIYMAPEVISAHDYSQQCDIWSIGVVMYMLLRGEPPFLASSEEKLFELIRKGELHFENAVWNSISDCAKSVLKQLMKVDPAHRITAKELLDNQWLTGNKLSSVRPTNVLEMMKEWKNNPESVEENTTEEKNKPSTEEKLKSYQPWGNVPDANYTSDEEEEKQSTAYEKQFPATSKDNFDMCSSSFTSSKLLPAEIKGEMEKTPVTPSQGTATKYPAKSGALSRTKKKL
* hit, by the source's call. An excerpt; most or all hits stand in other tables.

SMILES	STK33 kinase inh
Cc1ccc([N+](=O)[O-])c(OCCN2CCNCC2)c1	0.8
Cc1nn(C)c(C)c1NC(=O)Nc1cccc(C(F)(F)F)c1	-2.1
C/C(=N\NC(=O)c1cccc([N+](=O)[O-])c1)c1cccc(NC(=O)C2CC2)c1	-1.6
Cc1ccc2c(c1)NC(=O)C(CC(=O)NCc1cccnc1)O2 (configuration not stated)	-3.0
CCCS(=O)(=O)c1nc(C)cc(C)c1S(C)(=O)=O	-0.7
Cc1ccc(NC(=O)COC(=O)c2nn(C)cc2Cl)cc1	3.1
COc1ccc(OC)c(NC(=O)CN2CCC(C(=O)c3ccc(C)cc3)CC2)c1	0.4
CCC(C)[C@H](NC(=O)Nc1ccc(C)cc1C)C(=O)O (some centres not stated)	-1.4
Nc1nonc1-n1nnc(C(=O)N/N=C/c2cccc(F)c2)c1-c1ccccc1	-2.3
CC(C)c1ccccc1OCC(=O)Nc1ccc2[nH]ncc2c1	1.7
O=C(NC(=S)Nc1nc2ccccc2s1)c1cccs1	-1.6
O=C(c1ccc(NS(=O)(=O)c2cccc3cccnc23)cc1)N1CCOCC1	-1.1
CCOC(=O)c1ccc(NC(=O)C(CC)CC)cc1	-0.2
Cc1nc2cnccc2n1C	-1.3
Cc1cc(NC(=O)c2ccccc2NS(=O)(=O)c2c(C)c(C)cc(C)c2C)no1	-0.7
CN(Cc1ccccc1)C(=O)c1ccc(NC2=NC3CS(=O)(=O)CC3S2)cc1 (configuration not stated)	-0.7
COCCNC(=O)CN(Cc1ccc(OC)cc1)C(=O)CCC(=O)Nc1nccs1	-1.7
COC(=O)CCSCC(=O)Nc1ccc(C)c(S(=O)(=O)N2CCCCC2)c1	1.3
Cc1cccc(C)c1NC(=O)CSC(=S)N1CCCC1	-0.4
O=C(Nc1cc(Cl)ccc1Cl)C1CC(=O)N(c2ccc(Br)cc2)C1 (configuration not stated)	0.0
O=C(COc1ccc(/C=C2/NC(=O)NC2=O)cc1)Nc1ccc(F)cc1	0.6
c1ccc2c(c1)nc(N1CCOCC1)c1ccccc12	1.1
CCOC(=O)c1cnc(-n2nc(C)cc2C)nc1Nc1cccc(C(C)=O)c1	-0.6
Cc1ccc(COc2ccc3c(c2)OCO3)cc1	-1.4
CS(=O)(=O)c1ccc(-c2nnc(NC(=O)c3ccco3)o2)cc1	-0.8
NNC(=O)c1oc2nc(-c3ccccc3)cc(-c3ccccc3)c2c1N	-1.5
Cc1cc(=O)[nH]c(N/N=C/c2cccc(Br)c2)n1	-0.8
CCN(CC)CCCNCC(=O)Nc1ccc2c(c1)CCC2	0.3
Cc1ccc(N2CC(C(=O)Nc3nnc(SCCN4CCOCC4)s3)CC2=O)cc1C (configuration not stated)	-1.2
CC(=O)c1cccc(N(CC(=O)Nc2ccc(S(=O)(=O)N3CCCC3)cc2)S(C)(=O)=O)c1	0.4
COc1ccc(C2CC3(CC(C)(C)NC(=O)N3)Oc3cc(O)ccc32)cc1 (configuration not stated)	-3.1
Cc1nc(-c2ccc(C(F)(F)F)cc2)sc1C(=O)NN	-1.6
Cc1ccc(S(=O)(=O)c2c(N)n(Cc3ccco3)c3nc4ccccc4nc23)cc1	2.2
Cc1ccc(NC(=O)C(c2ccccc2)c2ccccc2)c(O)c1	-1.3
CN(CC(=O)NNC(=O)CNC(=O)c1ccccc1Cl)S(=O)(=O)c1ccc(Cl)cc1	-5.0
O=C(Nc1ccccn1)C12CC3CC(CC(C3)C1)C2	-0.8
Cc1cc(C)n2nc(C(=O)OCCOc3ccc(F)cc3)nc2n1	-0.7
O=C(NCCc1ccc(F)cc1)C(=O)NCC1CCCN1S(=O)(=O)c1cccs1 (configuration not stated)	0.0
COc1cccc(CC(=O)NNC(=O)c2ccc3c(c2)OCO3)c1	-1.3
Cc1ccccc1-c1nc(-c2ccc(NC(=O)c3ccc4c(c3)OCO4)cc2)no1	0.2
CCN(CC)S(=O)(=O)c1ccc(C(=O)Nc2nnc(C(C)C)s2)cc1	-1.5
O=C(Nc1ccccc1F)C1CCN(C(=O)NC2CCCCC2)CC1	-0.9
O=C(CCCOc1ccc(Cl)cc1Cl)Nc1cccnc1	-1.4
COCc1ccc(C(=O)NC2CCCN(Cc3ccccc3F)C2)o1 (configuration not stated)	-0.4
CCCCN(C)C(=O)c1ccc2c(c1)N(CC)C(=O)c1ccccc1S2(=O)=O	-1.3
CCC(C)(C)N(C(=O)CCC(=O)Nc1cc(C)on1)C(C(=O)NC(C)(C)C)c1ccc(OC)cc1 (configuration not stated)	-0.9
COc1ccc(S(=O)(=O)Nc2ccccc2OC)cc1NC(=O)CC1CC2CCC1C2 (configuration not stated)	-1.0
CCCCC1(C(=O)OCC)NC(c2ccc(O)cc2)C2C(=O)N(c3ccccc3)C(=O)C21 (configuration not stated)	-0.8
CCCCn1cnc2c([nH]c3cc(OC)ccc32)c1=O	-1.1
C/C(CC(=O)NCc1ccccc1)=N\NC(N)=S	0.0
CC(C)(C)c1ccc(C(=O)c2c[nH]c(C(=O)NCc3ccco3)c2)cc1	-1.1
COc1ccc(-n2nc(C(=O)NCC(=O)N3CCCC3)c3ccccc3c2=O)c(OC)c1	-1.8
COc1cc(C(=O)O)nc2ccc([N+](=O)[O-])cc12	-0.1
CN(C)CCN(Cc1ccccc1)S(=O)(=O)c1csc(C(N)=O)c1	0.5
CC1CCCC(NC(=O)c2ccc3c(c2)OCO3)C1C (configuration not stated)	-1.3
O=C(Nc1ccc(Cl)c(Cl)c1)Nc1nc(-c2ccccc2)cs1	-0.2
Cn1c(=O)c2c(ncn2CC(=O)OCC(=O)NCc2ccccc2Cl)n(C)c1=O	-1.1
CCOC(=O)c1ccc(N2C(=O)CC(N3CCC(O)(c4ccc(Br)cc4)CC3)C2=O)cc1 (configuration not stated)	-0.3
Clc1ccc(Oc2nc(Oc3ccc(Cl)cc3)nc(N3CCOCC3)n2)cc1	-2.3
Nc1c(-c2cccc(Cl)c2)cnn1-c1ccccc1	1.2

Going on with the list.
SMILES	STK33 kinase inh
COc1ccccc1C(C)NCC(=O)Nc1c(F)cccc1F (configuration not stated)	-3.9
CCOC(=O)c1c(CC(C)C)csc1NC=O	-2.4
CC(=O)N1CCN(S(=O)(=O)c2cccc(C(=O)OCC(=O)NC(=O)c3cccn3C)c2)CC1	-1.6
COc1ccc(OC)c(S(=O)(=O)N(C)CC(=O)N2CCN(c3ccccc3F)CC2)c1	-0.5
COc1ccc(N2C(=S)NC3CS(=O)(=O)CC32)cc1 (configuration not stated)	-1.1
CC(=O)N1CCN(C(=O)CSc2cc(C)c(Br)cc2C)CC1	-1.4
Cc1ccc(NC(=O)COC(=O)c2ccc(OCc3c(C)noc3C)cc2)cc1S(=O)(=O)N1CCOCC1	-1.8
CCn1c(CNC(=O)Cc2ccc(OC)cc2)nnc1SCC(=O)Nc1nccs1	-0.3
CCOc1ccc(-c2nnc(SCC(=O)NC(C)(C)C)nc2-c2ccc(OCC)c(OC)c2)cc1OC	-1.6
Cc1cc(C)n(CCNc2nc3nonc3nc2N2CCCCC2)n1	-0.8
c1ccc(-c2nc3cccnc3nc2-c2ccccc2)cc1	-0.3
O=C(O)C[C@H]1c2cc(F)ccc2S(=O)(=O)N1C1CCCCC1	0.0
CCN(CC)S(=O)(=O)c1ccc(Cl)c(C(=O)OC)c1	-0.9
Cc1cc(C(=O)NC2CCCc3c2cnn3-c2cccc(C)c2C)c(C)o1 (configuration not stated)	-1.3
O=C(Nc1cccc([N+](=O)[O-])c1)c1cc2ccccc2cc1O	-2.0
CCCC(=O)Nc1ccc(C(=O)NCCCn2ccnc2)cc1	-1.2
COc1ccc(C(=O)Nc2c(O)ccc3ccccc23)cc1	-0.6
C[C@@H]1CCC[C@@]2(O[C@@H](CCO)C[C@H](O)[C@H]2O)O1	-0.1
COc1ccccc1CCNC(=O)CN1C(=O)NC2(CCCC2)C1=O	-1.1
O=C(NCc1cccnc1)c1ccc([N+](=O)[O-])cc1	-0.9
O=C(CN1C(=O)COc2ccc(S(=O)(=O)N3CCCC3)cc21)Nc1cccc(F)c1	-2.7
CC(C)(C)c1ccc(C(=O)NNc2cc(N3CCCCC3)nc(N3CCCCC3)n2)cc1	0.6
COc1ccc(CN2C(=O)C(CC(C)C)Nc3ncnc(N4CCN(c5ccccc5)CC4)c32)cc1 (configuration not stated)	0.3
CC(=O)c1cn(C(=O)c2ccc(Cl)cc2)c2ccccc12	-0.7
COc1cccc(CNCc2ccc(OC)c3ccccc23)c1OC	-0.1
O=C(c1cc([N+](=O)[O-])cc([N+](=O)[O-])c1)N(c1ccccn1)c1ccccn1	-1.4
O=C(Nc1ccc(Cl)cc1)C(Cl)C(=O)c1ccccc1 (configuration not stated)	-0.5
O=C(CNCc1ccco1)Nc1ccc(Oc2ccccc2)cc1	0.2
COc1ccc(/C(C)=N/Nc2ccc(C(=O)O)cc2)c(OC)c1	-0.4
CS/C(N)=N/N=C/c1ccc([N+](=O)[O-])cc1	0.8
Cc1cc(NS(=O)(=O)c2ccc(NC(=O)CSc3nnc(-c4ccco4)n3N)cc2)nc(C)n1	-0.1
Cc1cccc(-n2nc3c(c2NC(=O)CCCl)CSC3)c1	0.9
Cc1c(C(c2ccc(N(C)C)cc2)c2c(C)n(C)n(-c3ccccc3)c2=O)c(=O)n(-c2ccccc2)n1C	2.4
COc1ccc(CCN2Cc3c(N)cccc3C2=O)cc1OC	-2.0
COc1ccccc1CCC(=O)Nc1nc2ccccc2[nH]1	-0.8
CC1Cc2ccccc2N1C(=O)CSc1nnnn1Cc1ccccc1 (configuration not stated)	-0.5
CCCNC(=O)c1onc(CSc2ccc(F)cc2)c1C(=O)NC(C)C	-1.3
COc1ccc(/C=N/NC(=O)c2ccc(CN3C(=O)c4cccc5cccc3c45)cc2)cc1O	-1.4
Clc1ccc(OCc2nnc(SCCN3CCCCC3)n2Cc2ccco2)cc1	-0.3
CCn1c2ccccc2c2nnc(SCC(=O)NCc3cccs3)nc21	-0.7

Already shown: an excerpt of the list.
SMILES	STK33 kinase inh
CC(C)(C)c1ccc(C(=O)NNc2cc(N3CCCCC3)nc(N3CCCCC3)n2)cc1	0.6
COc1ccc(CN2C(=O)C(CC(C)C)Nc3ncnc(N4CCN(c5ccccc5)CC4)c32)cc1 (configuration not stated)	0.3
CC(=O)c1cn(C(=O)c2ccc(Cl)cc2)c2ccccc12	-0.7
COc1cccc(CNCc2ccc(OC)c3ccccc23)c1OC	-0.1
O=C(c1cc([N+](=O)[O-])cc([N+](=O)[O-])c1)N(c1ccccn1)c1ccccn1	-1.4
O=C(Nc1ccc(Cl)cc1)C(Cl)C(=O)c1ccccc1 (configuration not stated)	-0.5

Quoted at random: three records from the list, in no set order.
SMILES	STK33 kinase inh
CC1Cc2ccccc2N1C(=O)CSc1nnnn1Cc1ccccc1 (configuration not stated)	-0.5
COc1ccc(C(=O)Nc2c(O)ccc3ccccc23)cc1	-0.6
CN(C)CCN(Cc1ccccc1)S(=O)(=O)c1csc(C(N)=O)c1	0.5

Next section.
SMILES	STK33 kinase inh
O=C1CCCC(O)=C1Sc1cc(Cl)c(Cl)cc1Cl	-2.9
CC12CCC(=O)N1C(C(=O)Nc1ccccc1F)CS2 (configuration not stated)	-1.1
Cc1cccc(-c2cc3nc(C)cc(N4CC(C)CC(C)C4)n3n2)c1 (configuration not stated)	-5.0
COC(=O)CN(c1ccc(OC)cc1OC)S(=O)(=O)c1ccccc1[N+](=O)[O-]	-1.3
Clc1ccc(Cl)c2sc(N3CCOCC3)nc12	0.9
CC(NC(=O)COC(=O)c1cn(-c2ccccc2)nc1-c1cccs1)c1ccccc1 (configuration not stated)	-1.4
CCOc1ccccc1C1c2[nH]c3ccccc3c2C[C@H]2C(=O)N(C3CCN(Cc4ccccc4)CC3)CC(=O)N12 (some centres not stated)	-1.1
CCc1cc2c(N[C@@H](Cc3ccccc3)C(=O)O)ncnc2s1	0.2
NC(=O)C1CC(=O)N(c2ccc(OCc3ccc([N+](=O)[O-])cc3)cc2)C1 (configuration not stated)	1.5
CC(C)CCN(C(=O)c1csnn1)C(C(=O)NC1CCCCC1)c1ccc(F)cc1 (configuration not stated)	0.5
CCCCCc1cc(=O)oc2c(C(CCN3CCN(c4ccccc4)CC3)c3ccc(N(C)C)cc3)c(OC)cc(OC)c12 (configuration not stated)	0.0
CC(=O)Nc1ccc(N(CC(=O)NC2CCCCC2)C(=O)Cn2nnc(-c3ccccc3)n2)cc1	-0.1
COC(=O)c1ccccc1NC(=S)NC(NC(=O)COc1ccccc1)C(Cl)(Cl)Cl (configuration not stated)	0.9
Cc1cccc(N2C(=O)CC(Sc3nccc(C)n3)C2=O)c1 (configuration not stated)	-0.4
O=C(CCCN1C(=O)c2cccc3cccc(c23)C1=O)N1CCN(c2ncccn2)CC1	-1.1
Oc1cccc2ccc(/C=C/c3c(F)cccc3Cl)nc12	-3.2
NC(=O)C(Cc1ccccc1)NS(=O)(=O)c1ccc(N2CCCC2=O)cc1 (configuration not stated)	-0.5
COc1cccc(-c2nc(CS(=O)(=O)CC(=O)NCc3ccc4c(c3)OCO4)c(C)o2)c1	-0.3
COc1ccc(CCNS(=O)(=O)c2cccc([N+](=O)[O-])c2)cc1OC	-2.3
COc1ccc(S(=O)(=O)N2CCC(N3CCCCC3)CC2)cc1	1.1
O=C(COC(=O)COc1ccccc1)Nc1cccc([N+](=O)[O-])c1	-0.5
Cc1nc2ccc(S(=O)(=O)c3ccc4nc(C)[nH]c4c3)cc2[nH]1	-0.4
CCOC(=O)CN/C=C(\C#N)c1ccccc1	-0.1
Cc1ccc(C)c(NC(=O)CCCCCCCCCCC2COCCO2)c1 (configuration not stated)	-1.3
CCN1CCN(CCOc2ccc(Br)cc2C)CC1	-0.7
CC(=O)Nc1ccc(S(=O)(=O)NC2C3(C)CCC(C3)C2(C)C)cc1 (configuration not stated)	8.2
Cc1cc(C)cc(NC(=O)CN(C)S(=O)(=O)c2cnc[nH]2)c1	0.2

Three entries already listed, sorted by SMILES length, low to high:
SMILES	STK33 kinase inh
Cc1cccc(-c2cc3nc(C)cc(N4CC(C)CC(C)C4)n3n2)c1 (configuration not stated)	-5.0
Cc1cc(C(=O)NC2CCCc3c2cnn3-c2cccc(C)c2C)c(C)o1 (configuration not stated)	-1.3
CCOC(=O)c1ccc(N2C(=O)CC(N3CCC(O)(c4ccc(Br)cc4)CC3)C2=O)cc1 (configuration not stated)	-0.3
